From PubChem
AmpC inh no det = Promiscuous and Specific Inhibitors of AmpC Beta-Lactamase (assay without detergent). hit rate 1.8% among 71,000. Potency, µM (highest dose often 28.7 µM), without a hit: at the top dose activity change, negative = inhibition. AmpC nitrocefin hydrolysis, absorbance 480 nm, no detergent; potencies from a single point are estimates; active = falling curve, for most hits resting on a single point; inconclusive = weak or doubtful change; inactive = flat or rising curve; also: % of control where 0% means no effect; about half of the hits show no inhibition at the top dose; a quarter of the inactives give rising signals
Target sequence (P00811 whole entry, looked up): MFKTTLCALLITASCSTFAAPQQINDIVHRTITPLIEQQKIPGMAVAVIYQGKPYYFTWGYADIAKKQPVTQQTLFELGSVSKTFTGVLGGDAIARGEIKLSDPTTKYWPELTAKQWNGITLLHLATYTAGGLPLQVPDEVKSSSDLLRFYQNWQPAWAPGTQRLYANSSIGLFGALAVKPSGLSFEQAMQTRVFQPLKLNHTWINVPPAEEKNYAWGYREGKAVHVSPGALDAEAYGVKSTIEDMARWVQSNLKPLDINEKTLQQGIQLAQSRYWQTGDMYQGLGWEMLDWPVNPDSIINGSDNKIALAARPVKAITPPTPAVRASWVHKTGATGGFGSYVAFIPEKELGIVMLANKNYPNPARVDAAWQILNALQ
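AmpC, 20 mM phosphate pH 7.0; 15 min cpd preinc, RT; start with nitrocefin (800 uM stock); A480 kinetic read, 20 s intervals, 4 min. No-enzyme wells = negative control.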
The depositor's hits bear a star; ? = inconclusive; & = joins results of further samples; [ ] = dose if it differs, or a comment. Potency is read from the fitted curve at half-maximal effect. These rows are one share of the data. The share of hits here may be higher or lower than overall.

The first two entries, to show the layout:
SMILES	AmpC inh no det
c1ccc(-n2cccc2CNC2CCCCC2)cc1	-11%
CN(C(=O)c1ccccn1)c1nnc(-c2ccccn2)s1	6%

Results (from the top)
SMILES	AmpC inh no det
c1ccc(-n2cccc2CNC2CCCCC2)cc1	-11%
CN(C(=O)c1ccccn1)c1nnc(-c2ccccn2)s1	6%
O=S(=O)(c1ccc(Cl)s1)N1CCN(Cc2ccccc2)CC1	27%
CC1(C)NC(=O)N(CC(O)CN(Cc2ccccc2)Cc2ccccc2)C1=O (stereo unspecified)	71%
O=S(=O)(c1ccc(F)c(F)c1)N1CCN(Cc2ccc3c(c2)OCO3)CC1	17%
O=S(=O)(c1ccc(-c2csc(-c3cccnc3)n2)cc1)N1CCCC1	43%
COC(=O)C(C(=O)Nc1ncccn1)C1CCCCCC1 (stereo unspecified)	10%
CCCCOC(=O)COc1cc(C)cc2oc(=O)c3c(c12)CCC3	-5%
CCOC(=O)N1CCN(C(=O)C2CCCN(S(=O)(=O)c3cccnc3)C2)CC1 (stereo unspecified)	4µM*[single pt active]
COc1ccc(NC(=O)c2cnc3sccn3c2=O)cc1OC	1%
O=C(NCCCN1CCCC1=O)c1cncc(Br)c1	7%
O=C(/C=C/c1ccc(O)c(O)c1)OC1C[C@](O)(C(=O)O)C[C@@H](O)[C@H]1O (stereo partly specified)	?
O=C(NCCCc1ccccc1)c1ccccc1O	-2%
CCOC(=O)N1CCc2c(sc(NC(=O)c3ccc(Cl)s3)c2C(N)=O)C1	-2%
O=C(c1ccc(N2CCCCS2(=O)=O)cc1)N1CCN(c2ccc(N3CCOCC3)nn2)CC1	4µM*[single pt active]
CCCCN(CC)Cc1c(C)[nH]c2ccccc2c1=O	-9%
O=S(=O)(NCC(c1cccnc1)N1CCN(c2ccc(F)cc2)CC1)c1ccccc1 (stereo unspecified)	53%
Cc1cc(NC(=O)CCC(=O)N(c2cccnc2)C(C(=O)NC2CCCC2)c2ccccc2)no1 (stereo unspecified)	30%
Cc1c(N(C)C)c(=O)n(-c2ccccc2)n1C	-4%
Cc1nc(C)n(C(=O)N(c2ccccc2)c2ccccc2)n1	18%
CCCOc1ccccc1C1C(C(=O)OC)=CN(C(C)C)C=C1C(=O)OC	64%
CC[C@H](C)[C@@H]1O[C@]2(CC[C@@H]1C)C[C@H]1C[C@H](CC=C(C)[C@@H](O[C@H]3C[C@H](OC)[C@H](O[C@H]4C[C@H](OC)[C@H](O)[C@H](C)O4)[C@H](C)O3)[C@@H](C)C=CC=C3CO[C@@H]4[C@@H](O)C(C)=C[C@H](C(=O)O1)[C@@]34O)O2	111%
COc1ccccc1N1CCN(C(CNC(=O)c2ccco2)c2cccnc2)CC1 (stereo unspecified)	49%
COc1ccc(N2C(=O)C3CCCN3C2c2cc(OC)c(OC)cc2OC)cc1 (stereo unspecified)	30%
Cc1cc(C)n(-c2nc3c(c(=O)[nH]c(=O)n3C)n2CC(O)COc2ccccc2)n1 (stereo unspecified)	13%
CC(C)c1nnc(NC(=O)CCC(=O)N2CCN(Cc3ccccc3)CC2)s1	30%
CCc1ccc2[nH]c(=O)c(C(c3nnnn3CC3CCCO3)N3CCN4CCCC4C3)cc2c1 (stereo unspecified)	64%
O=CNCCCc1nc2ccccc2n1Cc1ccccc1	16%
CCC(=O)Nc1c(-c2ccc(OC)cc2)c(=O)c2ccccc2n1C	0%
N#Cc1cnc(Nc2nc3ccccc3o2)nc1-c1ccccc1	36%
O=C(COC(=O)c1cccs1)NC1CCCCC1	-3%
COc1ccc(CCN=CC2=C(O)CCCC2=O)cc1OC	4%
O=C(c1ccccc1)N1CC(COc2ccccc2)OC(c2ccco2)O1 (stereo unspecified)	47%
Cc1noc(C)c1COC(=O)c1ccc2c(c1)S(=O)(=O)c1ccccc1C2=O	39%
COCCN1C(=O)c2oc3c(C)cc(C)cc3c(=O)c2C1c1cccc(O)c1 (stereo unspecified)	62%
Clc1ccc(-c2nc(NCCN3CCOCC3)c3ccccc3n2)cc1	129%
CC1CCN(C(=O)CSc2nnc(Cc3cccn3C)n2-c2ccc(F)cc2)CC1	133%
CCN(CCNC(=O)C1CCN(Cc2nc(-c3cccc(Cl)c3)oc2C)CC1)c1ccccc1	135%
COc1ccc(-c2noc(-c3ccccc3C(=O)NCc3ccco3)n2)cc1OC	50%
COc1cccc(N2CCN(C(=O)c3[nH]c(C)c(C(C)=O)c3C)CC2)c1	33%
Cc1noc(C)c1-c1ccc2ncnc(NCc3cccnc3)c2c1	17%
CN1CCc2ccccc2Cc2[nH]c3ccccc3c2CC1	30%&-10%
CCN(C(=O)CN1CCN(c2ccccc2OC)CC1)c1c(N)n(Cc2ccccc2)c(=O)[nH]c1=O	-7%
O=C(c1ccccc1)C1C(=O)c2ccccc2C1=O	-9%
COc1cc(C2C(C(=O)c3ccc(C)o3)=C(O)C(=O)N2CCc2ccccc2)ccc1O (stereo unspecified)	-15%
COc1ccc(CC2C(=O)N(C)C(=O)N(C)C2=O)c(OC)c1	-17%
COc1cc2c(cc1NC(=O)Cn1cnc3c1c(=O)n(C)c(=O)n3C)oc1ccccc12	124%
O=C(O)/C=C\CO	12%
Nc1nc2ccc([N+](=O)[O-])cc2s1	-18%
O=C(NCCN1CCOCC1)c1ccc(CS(=O)(=O)c2ccc(Cl)cc2)o1	-7%
COc1cc(NC(=O)c2cccs2)c(C(=O)OCC(=O)NCc2ccco2)cc1OC	81%
CC(=O)Cc1nsc(Nc2ccc3c(c2)OCCO3)n1	-7%
Fc1ccccc1-c1nc(-c2ccccc2)no1	-5%
Nc1nc(-c2cccnc2)nn1C(=O)Cc1ccccc1	22%
CCS(=O)(=O)N1CCC(C(=O)NCc2ccccc2OC)CC1	6%
CN1CCN(c2cc3c(c4c2[nH]c2ccccc24)C(=O)CC(C)(C)C3)CC1	3.2µM*[single pt active]
CC(C)OC(=O)c1c(N)n(CC2CCCO2)c2nc3ccccc3nc12 (stereo unspecified)	31%
Cc1ccc(NC(=O)CN(C)S(=O)(=O)c2cccc3nsnc23)cc1Cl	-14%
NCCC[C@@H](CC(=O)N[C@@H]1CCCC[C@H]1C(=O)N[C@H](CC(=O)N[C@@H](CCC(=O)O)CC(=O)O)Cc1ccccc1)NC(=O)C[C@H](Cc1ccccc1)NC(=O)[C@@H]1CCCC[C@H]1N	156%
c1ccc(-c2cc(N3CCCCC3)ncn2)cc1	21%

Quoted at random: seven compounds from above.
SMILES	AmpC inh no det
CC(=O)Cc1nsc(Nc2ccc3c(c2)OCCO3)n1	-7%
CC(C)OC(=O)c1c(N)n(CC2CCCO2)c2nc3ccccc3nc12 (stereo unspecified)	31%
Cc1ccc(NC(=O)CN(C)S(=O)(=O)c2cccc3nsnc23)cc1Cl	-14%
COc1cc(NC(=O)c2cccs2)c(C(=O)OCC(=O)NCc2ccco2)cc1OC	81%
NCCC[C@@H](CC(=O)N[C@@H]1CCCC[C@H]1C(=O)N[C@H](CC(=O)N[C@@H](CCC(=O)O)CC(=O)O)Cc1ccccc1)NC(=O)C[C@H](Cc1ccccc1)NC(=O)[C@@H]1CCCC[C@H]1N	156%
O=C(NCCN1CCOCC1)c1ccc(CS(=O)(=O)c2ccc(Cl)cc2)o1	-7%
COc1ccc(CC2C(=O)N(C)C(=O)N(C)C2=O)c(OC)c1	-17%

Additional records follow:
SMILES	AmpC inh no det
Cc1cccc(OCc2nnc(SCC(=O)N3CCN(C(=O)c4ccco4)CC3)n2C)c1C	97%
CC(C)(C)NC(=O)C(c1ccco1)N(Cc1ccc2c(c1)OCO2)C(=O)Cn1nnc2ccccc21 (stereo unspecified)	41%
Cc1nnc(SCCN2CCOCC2)n1-c1cccc(Cl)c1	15%
O=C(O)CSc1nc2ccc(Cl)cc2[nH]1	-7%
COC(=O)C1(C)NC(c2cccs2)C2C(=O)N(c3ccc(F)cc3)C(=O)C21 (stereo unspecified)	8%
COc1ccc(NC(=O)C2=C(C)Nc3ncnn3C2c2ccccc2C(F)(F)F)c(OC)c1 (stereo unspecified)	26%
CCC1c2ccc(C)n2CCN1C(=O)Nc1ccccc1OC (stereo unspecified)	45%
CC1CCCN(CCCNC(=O)CCn2nc(-c3ccccc3)ccc2=O)C1 (stereo unspecified)	-2%
COc1ccccc1C(=O)Nc1ccc(N2CCN(S(C)(=O)=O)CC2)cc1	38%
CCn1cc(C(=O)O)c(=O)c2cc(F)c(N3CCN(C(=O)Nc4ccccc4)CC3)cc21	29%
O=C(COC(=O)c1ccco1)NCc1cccs1	-2%
CCN(CCNC(=O)CS(=O)(=O)Cc1nc(-c2cccc(OC)c2)oc1C)c1ccccc1	67%
C#CC(C)(C)NC(=O)CSc1nc2c(c(=O)n(C)c(=O)n2C)n1CCCC	32%
COc1ccc(OCCCC(=O)Nc2nnc(C3CCCO3)s2)cc1 (stereo unspecified)	-9%
CC(C)N(C(=O)NC(=O)NCC1CCCO1)S(C)(=O)=O (stereo unspecified)	-5%
COc1ccc2[nH]cc(CCN=C3SCC(=O)N3C)c2c1	-12%
Cc1cccc(NC(=O)c2cccnc2)c1	2%
CC1CCc2nn(CC(=O)NCCN3CCOCC3)cc2C1 (stereo unspecified)	-11%
CC(C)OCCCNC(=O)c1c(N)n(Cc2cccs2)c2nc3ccccc3nc12	102%
CC1=CC(=C2C(=O)c3ccccc3C2=O)C=C(C)N1C	-8%
O=C(c1cc2ccccc2oc1=O)N1CCC2(CC1)OCCO2	-3%
Cc1noc(NS(=O)(=O)c2ccc(NC(=O)c3ccoc3C)cc2)c1C	-9%
Cc1cc(NC(=O)CSc2nnc(CNc3ccc(F)cc3)n2C2CCCCC2)no1	31%
CCOc1ccc(OCC)c(NC(=O)CSc2nc3cccnc3n2C)c1	66%
Cc1ccc(N=Nc2c(O)c3ccccc3[nH]c2=O)c(S(=O)(=O)N(C)C)c1	0%[5.75 µM]
Cc1ccccc1-c1nnc(SCC(=O)Nc2ccc3c(c2)OCCO3)n1N	3%
CCC(=O)Nc1c(C#N)c2nc3ccccc3nc2n1-c1ccccc1C	21%
CCn1c(SCC(N)=O)nc2c1c(=O)n(C)c(=O)n2C	-6%
O=C(NCCN1C(=O)C2C3C=CC(C3)C2C1=O)Nc1ccc(Br)cc1 (stereo unspecified)	4µM*[single pt active]
O=C(COC(=O)c1cn(-c2ccccc2)nc1-c1cccs1)NC1CC1	60%

Exported as labelled records: three of the compounds above
COc1ccc2[nH]cc(CCN=C3SCC(=O)N3C)c2c1
  AmpC inh no det: -12%

Cc1cccc(NC(=O)c2cccnc2)c1
  AmpC inh no det: 2%

CC1CCc2nn(CC(=O)NCCN3CCOCC3)cc2C1 (stereo unspecified)
  AmpC inh no det: -11%

(continued)
SMILES	AmpC inh no det
COc1ccc(N2C(=O)CSC2c2cccc(F)c2)c(OC)c1 (stereo unspecified)	42%
O=C1OCCC1N1C(=O)c2ccccc2S1(=O)=O (stereo unspecified)	-8%
O=C(NC(=O)c1cccc(F)c1)OC[C@@H]1CCCN2CCCC[C@H]12	-5%
CCOCCn1c(=O)c2c(nc3n2CCN3c2ccc(C)cc2)n(C)c1=O	12%
O=C(Cn1c(=O)oc2cc(S(=O)(=O)N3CCc4ccccc43)ccc21)N1CCCCC1	76%
O=C(Nc1ccc([N+](=O)[O-])cc1Cl)c1cc(Cl)ccc1O	-2%[12.8 µM]
O=S(=O)(Nc1nc2ccccc2[nH]1)c1ccccc1	-12%
O=[As](O)(O)c1ccc(N=Nc2ccc([As](=O)(O)O)cc2)cc1	0%[5.75 µM]
COC(=O)c1cc(NCc2cccs2)ccc1N1CCOCC1	24%
O=C(CCN1C(=O)C2C3C=CC(C3)C2C1=O)N1CCN(c2cccc(Cl)c2)CC1 (stereo unspecified)	124%
O=C(Nc1ccc2c(c1)OCCO2)c1cccc(S(=O)(=O)N2CCOCC2)c1	-5%
COC(=O)CSc1nnc(Cc2cc(=O)[nH]c(=O)[nH]2)n1-c1cccc(OC)c1	4%
O=C(c1ccc(Cl)s1)N1CCc2ccccc21	-18%
O=C(c1ccc(N2CCOCC2)nc1)N1CCOCC1	3%
CCOC(=O)Cn1c(=O)c2c(nc3n2CCN3Cc2ccccc2)n(C)c1=O	52%
O=C1CCCC2=C1C1(CCCC1)N=C(Nc1nc3ccccc3s1)N2	-1%
CCOc1ccccc1OC(=O)c1ccco1	6%
CN(C)Cc1nsc(N(C)C)n1	2%[5.75 µM]
CC(=O)N=C1SC2CS(=O)(=O)CC2N1c1c(Cl)cccc1Cl (stereo unspecified)	-7%
COC(=O)CSc1ccc2c(N)c(C(=O)OC)sc2c1	17%
C=CCn1c(SCC(=O)NCc2cccs2)nnc1C1CCCCC1	14%
N[C@@H](Cn1cc(F)c(=O)[nH]c1=O)C(=O)O	10%
COc1cc(S(=O)(=O)N2CCCCCC2)ccc1Cl	-5%
CC(=O)C1=C(c2ccccc2)NC(=O)NC1c1ccccc1OCC#N (stereo unspecified)	-4%
Cc1cc(C)c(S(=O)(=O)N(CC(=O)N2CCOCC2)C2CCCCC2)c(C)c1	-6%
CCOC(=O)N1CCN(C(=O)C2CCC(CNS(=O)(=O)c3ccccc3)CC2)CC1 (stereo unspecified)	55%
O=C(Nc1nncs1)c1cccc(S(=O)(=O)N2CCCC2)c1	-6%
CCOC(=O)c1cncn1[C@H](C)c1ccccc1	17%
CCc1nnc(NC(=O)CSc2nc(-c3ccc(OC)cc3)ns2)s1	-1%
O=C(c1ccc(COc2ccccc2Cl)o1)N1CCN(c2ccccc2)CC1	55%
O=C(CCN1CCOCC1)Nc1c(-c2ccccc2)c2cc(Br)ccc2[nH]c1=O	115%
Cn1c(SC2=CS(=O)(=O)c3ccccc32)nc2ccccc21	?
COc1ccc(CCNc2oc(-c3ccccc3OC)nc2C#N)cc1	25%
c1ccc2cc3[nH]c(CN4CCCCC4)nc3cc2c1	6%
O=C(Nc1nccs1)C1CCCN(S(=O)(=O)c2cccc3cccnc23)C1 (stereo unspecified)	7%
